Screening data deposited in PubChem BioAssay by several laboratories.
LANA-H2A inh – blocks KSHV LANA binding to histone H2A/H2B; Q9QR71; 0.6% of 320,000 active; inhibition, % (concentration not given with the values); cell-free LANA-H2A/H2B peptide, fluorescence polarization; in the data active = inhibition mostly above about 10%, no sharp cut-off; inactive = mostly below about 6.7%;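 also: stock transfer was 7.5 nL into about 10 µL; 0% = median of vehicle wells and 100% = median of positive control wells; one replicate is shown; the record names a cut of 25% in any replicate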
Target sequence (Q9QR71 whole entry, looked up): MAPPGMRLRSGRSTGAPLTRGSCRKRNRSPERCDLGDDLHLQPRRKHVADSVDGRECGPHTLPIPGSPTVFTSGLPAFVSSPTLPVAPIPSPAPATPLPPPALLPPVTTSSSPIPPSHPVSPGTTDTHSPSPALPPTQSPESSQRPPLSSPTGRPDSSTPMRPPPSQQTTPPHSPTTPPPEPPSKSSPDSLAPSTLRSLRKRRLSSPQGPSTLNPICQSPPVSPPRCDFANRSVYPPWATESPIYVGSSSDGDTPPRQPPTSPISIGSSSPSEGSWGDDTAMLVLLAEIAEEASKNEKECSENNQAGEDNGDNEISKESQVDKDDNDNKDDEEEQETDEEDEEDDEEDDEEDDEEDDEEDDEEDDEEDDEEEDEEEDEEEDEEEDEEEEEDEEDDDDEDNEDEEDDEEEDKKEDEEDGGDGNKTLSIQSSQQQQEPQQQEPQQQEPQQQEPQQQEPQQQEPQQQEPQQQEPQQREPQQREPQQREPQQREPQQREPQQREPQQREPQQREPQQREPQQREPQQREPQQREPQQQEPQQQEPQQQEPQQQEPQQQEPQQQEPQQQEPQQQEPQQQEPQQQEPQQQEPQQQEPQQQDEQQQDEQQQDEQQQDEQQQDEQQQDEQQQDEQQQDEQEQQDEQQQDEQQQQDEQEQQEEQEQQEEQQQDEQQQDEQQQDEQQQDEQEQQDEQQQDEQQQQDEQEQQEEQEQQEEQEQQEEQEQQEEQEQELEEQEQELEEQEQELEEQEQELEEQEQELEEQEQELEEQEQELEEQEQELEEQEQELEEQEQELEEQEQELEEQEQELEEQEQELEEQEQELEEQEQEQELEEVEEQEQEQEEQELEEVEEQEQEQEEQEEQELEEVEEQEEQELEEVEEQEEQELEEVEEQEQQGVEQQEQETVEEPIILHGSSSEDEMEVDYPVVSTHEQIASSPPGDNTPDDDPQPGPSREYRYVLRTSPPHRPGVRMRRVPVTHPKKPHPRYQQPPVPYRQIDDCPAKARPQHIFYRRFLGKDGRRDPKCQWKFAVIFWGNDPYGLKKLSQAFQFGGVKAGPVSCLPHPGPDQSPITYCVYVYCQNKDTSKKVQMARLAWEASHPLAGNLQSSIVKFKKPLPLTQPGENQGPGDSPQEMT
AF4-AF9 inh – MLL-AF4/AF9 protein interaction inhibition | AlphaScreen, biotin-AF4 peptide binding to FLAG-AF9 | inhibition, % at 10 µM | 0.47% of 350,000 active | AID 651704;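 active = every replicate reaching a set inhibition limit, whatever the replicate mean, cut at about 25% in these data; inconclusive = mean inhibition reaches that limit but some replicates miss it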;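 also: 0% = plate neutral control median and 100% = total signal loss; the record names both 10 and 1 µM as test concentration; the first replicate is given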
A1 inh – inhibitors of the anti-apoptotic protein A1, read as caspase activation; MEF A1-2A-BIM cells, Caspase-Glo 3/7 luminescence, 3 h; percent of clofoctol response, vehicle zero; caspase activation, % (no concentration beside the values); 0.066% of 330,000 active;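 active = over half of replicate activation scores above 10%, or exactly half above 10 with the replicate mean above 10; inconclusive = replicate mean below 10 yet half the replicates above 10; inactive = over half of replicates below 10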;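 also: wells of about 30 µL received 50 nL stock; many hits fall short of the cut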
Calb FLC – C. albicans growth modulation with fluconazole; C. albicans CaCi-2 (fluconazole-resistant clinical isolate) + fluconazole, Alamar Blue growth, 48 h; AID 1979; 0.57% of 300,000 active; growth inhibition, % (test concentration not listed);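 active = most replicates above 75%; inconclusive = exactly half above 75%; inactive = most below 75%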;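 also: all wells also contain fluconazole at 8 µg/ml as a sub-toxic cotreatment; 0% = median of DMSO wells and 100% = median of geldanamycin control wells; wells of about 8 µL received 7.5 nL stock; the first replicate is given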
Vif A3G – inhibitors of Vif binding to APOBEC3G peptide, primary screen, biochemical, TR-FRET, GST-Vif 1-94, biotin-A3G peptide, dose response retest (AID 1117319); TR-FRET GST-Vif / biotin-A3G peptide binding; higher % means a stronger effect; test concentration not given here; strong numbers were not always called active; one-dose inhibition, %; IC50 in µM for titrated hits; 0.57% of 260,000 active;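 active = above the screen mean plus three standard deviations and confirmed in dose response; inconclusive = results disagree or hit not tested in dose response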;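 also: Vif residues 1-94 fused to GST binding biotinylated APOBEC3G peptide 110-148; 0% = full assay without inhibitor and 100% = GST in place of GST-Vif; retest series ran down from 100 µM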
T cruzi repl – T. cruzi replication inhibition; T. cruzi beta-gal in NIH3T3, luminescence, 90 h; inhibition, % (test concentration not listed); 1.4% of 300,000 active; AID 1885;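 active = mean inhibition across valid replicates above about 55%, limit read from the data; inconclusive = mean below that limit but half or more replicates reach it; inactive = mean below it, under half of replicates reach it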;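 also: signal also drops with host cell toxicity which is not excluded here; 0% = plate median of DMSO wells and 100% = zero luminescence signal; higher percent means less beta-gal luminescence so fewer parasites; stock transfer was 50 nL into about 50 µL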
RanGTP-Impb inh – inhibitors of RanGTP-importin-beta interaction, primary screen, biochemical, FRET, CFP-Ran, YFP-importin-beta, homogeneous; cell-free CFP-Ran/YFP-importin-beta FRET ratio; inhibition, % (test concentration not listed); 1.1% of 300,000 active; AID 2216;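 active = most replicates above 15%; inconclusive = exactly half above 15%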;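 also: 0% = DMSO wells and 100% = Ran loaded with GDP instead of GTP; wells of about 40 µL received 100 nL stock; the first replicate is given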
Beta cell apopt – beta cell apoptosis inhibition; INS-1E cytokine-induced death, ATP luminescence, 48 h; percent of positive-control rescue, neutral wells zero; protection from apoptosis, % (no concentration beside the values); 0.8% of 300,000 active;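 active = all replicates at 75% or more, or half of them and the mean; inconclusive = half reach 75% but not the mean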;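 also: 0% = cytokine-treated negative control wells and 100% = positive control rescue; higher means more ATP so stronger rescue from cytokine killing; wells of about 40 µL received 100 nL stock; the first replicate is given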
* marks the source's active call; other numbers are inactive results; ? = inconclusive; . = not tested or not shown.

SMILES	LANA-H2A inh	AF4-AF9 inh	A1 inh	Calb FLC	Vif A3G	T cruzi repl	RanGTP-Impb inh	Beta cell apopt
COc1ccc(S(=O)(=O)N2CCN(C3CCN(Cc4ccccc4)CC3)CC2)cc1	0.1	.	0.2	-29	4%	7	3.2	-2
O=C(/C=C/c1ccc2c(c1)OCO2)NCc1ccncc1	0.5	-3.7	-0.1	0	19%	2	1.1	-4
OCC[C@@H]1C[C@@H](O)[C@H](O)[C@]2(CCc3ccccc3O2)O1	-2.1	-1.0	-0.3	7	.	-4	8.1	0
COc1ccc(S(=O)(=O)N2CCCCCC2)cc1C(=O)OCc1c(C)noc1C	1.4	.	0.0	.	-2%	.	.	5
CCC(=O)N/C(=N/c1nc(C)cc(C)n1)Nc1ccc(OC)cc1	-2.8	1.2	-0.5	0	3%	2	-2.6	0
COCCCNC(=S)N(CCN(C)C)Cc1cc2cc3c(cc2[nH]c1=O)OCCO3	9.1*	-3.7	1.8	50	.	-8	-10	-8
CCC(NC(=S)Nc1ccccc1)C(=O)O (stereo not drawn)	-1.7	.	0.1	13	7%	-15	2.6	-8
O=C(CSc1nnc2c(Cl)cc(C(F)(F)F)cn12)Nc1ccc2c(c1)OCO2	-5.7	.	-0.8	-5	-9%	6	?	-18
CCc1nnc(NS(=O)(=O)c2ccc(NC(=S)NC(=O)/C=C/c3ccc(C(C)C)cc3)cc2)s1	-5.2	.	1.2	-3	7%	-3	-5.1	-2
CCOC(=O)c1sc2nc(C)nc(NCc3cccnc3)c2c1C	-1.6	-0.3	-1.6	14	.	15	-0.1	3
COc1ccc(CN2CCCC(C(=O)N3CCc4ccccc4C3)C2)cc1OC (stereo not drawn)	-5.4	-1.4	0.2	.	.	?	4.0	-5
CCCCn1c(SCC(=O)OCC)nc2c1c(=O)[nH]c(=O)n2C	2.7	-1.6	0.3	2	6%	-5	2.5	-2
CC1=NN(c2ccc([N+](=O)[O-])cc2)C(=O)/C1=C\N(C)C	3.5	2.0	-7.2	1	.	-8	0.0	42
CCCNC(=O)C(Cc1ccccc1)NC(=O)c1ccc(-c2ccccc2)cc1 (stereo not drawn)	10.0	-21	0.9	.	.	.	.	2
COc1cccc(C(=O)NC2(C(F)(F)F)N=C3SCCN3C2=O)c1 (stereo not drawn)	4.4	.	-0.2	-14	3%	-14	2.0	-6
Cc1cc(C)nc(-n2nc(C)cc2NC(=O)c2cc3ccccc3oc2=O)n1	-3.9	-42	0.5	3	.	-10	-0.8	-4
Nc1nc2c(F)cccc2s1	-3.7	.	0.0	5	.	-14	3.3	0
CC1(C)CC(=O)C2=C(C1)OC(N)=C(C#N)C21C(=O)N(Cc2ccccc2Cl)c2ccccc21 (stereo not drawn)	-1.6	.	0.6	8	1%	14	6.1	9
CCCCC(=O)OCc1c(-c2ccccc2)ncc2ccccc12	-1.9	-5.8	-0.4	.	.	.	.	-1
Cc1ccc([N+](=O)[O-])cc1NC(=O)Nc1ccc(S(N)(=O)=O)cc1	-1.9	0.9	1.7	4	29%	2	-1.5	-4
CCc1ccc(OCC(O)CN2CCN(c3ccc(OC)cc3)CC2)cc1 (stereo not drawn)	-1.8	16	-0.1	6	5%	19	-0.6	-3
Cc1ccc2nc3c(cc(C(=O)NC4CCCCC4)c(=N)n3C3CCCCC3)c(=O)n2c1	-1.9	0.3	0.8	5	0%	51	182*	-1
Cc1cc(=O)oc(C)c1C(=O)NCCc1ccc(F)cc1	0.9	.	-0.1	-3	-4%	-9	0.9	2
Cc1ccc(S(=O)(=O)CC(CN2CCOCC2)N2CCOCC2)cc1 (stereo not drawn)	1.5	0.0	-0.1	-19	4%	-17	-0.8	-3
O=C(COC(=O)C1CCN(S(=O)(=O)c2c(Cl)cccc2Cl)CC1)NCc1ccco1	0.7	-7.0	?	.	-8%	-5	-0.2	2
COc1ccccc1-n1c2nc3ccccc3nc2c2c(=O)n(-c3cc(C)cc(C)c3)cnc21	2.0	.	0.3	-1	-12%	28	0.3	2
O=C(NCC(=O)N1CCN(S(=O)(=O)/C=C/c2ccccc2)CC1)c1ccc(Cl)cc1	3.0	-5.1	0.0	3	8%	3	-2.1	-3
Oc1cccc(Nc2ncnc3ccccc23)c1	1.7	3.3	-0.4	-5	-2%	-1	5.6	8
O=C(Nc1ccccc1C(=O)N1CCCCCC1)c1ccc(Cl)cc1	-11	0.0	3.2	-6	.	4	-2.5	-5
O=C(Cn1ccc2ccccc2c1=O)NCCC(=O)N1CCN(c2cccc(C(F)(F)F)c2)CC1	-6.3	.	0.3	17	22%	4	0.3	-3
CC(C)OC(=O)c1cccnc1N1CCN(c2cccc(Cl)c2)CC1	-1.8	0.1	0.1	-9	.	20	0.6	4
Cc1cccc(NC2=C/C(=N/S(=O)(=O)c3cccs3)c3ccccc3C2=O)c1	-2.2	.	-0.1	.	24%	.	.	105*
Cc1nc2c(C)cccn2c(=O)c1NC(=O)c1cccc2ccccc12	3.9	-1.4	-0.6	-1	-4%	-2	?	.
COc1ccc(C(=O)Nc2ncccc2C)cc1S(=O)(=O)N1CCCc2ccccc21	-0.4	0.6	0.3	-3	4%	19	-5.7	0
C[C@@H]1CN([C@@H](C)CO)C(=O)c2cc(NC(=O)Nc3ccc4c(c3)OCO4)ccc2O[C@H]1CN(C)S(=O)(=O)c1cn(C)cn1	0.9	-2.1	0.9	.	.	.	.	-5
Cc1ccc(NC(=O)c2cc([N+](=O)[O-])ccc2NCc2cccnc2)cc1Cl	0.9	.	0.7	16	21%	57*	2.6	31
COc1ccccc1CCc1nnc(N)s1	-1.5	-2.6	1.6	29	.	7	?	-3
COc1ccccc1NC(=O)CSc1nnc(Cn2c(=O)sc3ccccc32)n1C	1.1	-0.4	0.3	4	19%	-6	0.9	0
Cn1nnnc1Sc1ncnc2scc(-c3ccccc3)c12	1.6	.	-0.2	-8	-4%	-55	-4.7	-14
O=S(=O)(Cc1ccc(Cl)cc1)N1CCN(Cc2ccc3c(c2)OCO3)CC1	-5.1	1.0	?	-43	-4%	-12	5.5	-2
CCN(CC)S(=O)(=O)c1ccc2[nH]cc(C(=O)NCCCN3CCCCC3C)c(=O)c2c1 (stereo not drawn)	-4.7	.	-0.3	10	1%	-16	2.1	1
Cc1csc(=O)n1CC(=O)OCC(=O)Nc1ccc(Cl)cc1F	-3.9	-2.8	0.2	11	-14%	-26	3.1	.
COc1ccc(NC(=O)NCc2cccnc2)cc1OC	-2.7	.	-0.2	1	3%	16	.	-5
O=C(NC1CCCCC1)C(c1ccccc1)N(C(=O)Cc1ccsc1)c1ccccc1 (stereo not drawn)	-1.9	-31	-0.3	2	-2%	-1	1.9	-8
NS(=O)(=O)c1ccc(CCNC(=O)CN2CCN(c3ccccc3O)CC2)cc1	8.4	-2.3	0.2	-3	4%	-3	-1.6	2
CCN(Cc1ccccc1)C(=O)CSc1nncn1C	-4.5	3.0	0.7	5	-4%	-8	-0.2	-4
CN(CC(=O)Nc1ccccc1F)CC(=O)Nc1ccccc1Br	2.2	-2.0	0.4	7	-3%	-8	-2.3	-7
CSCCC1NC(=O)N(CC(=O)Nc2ccc(Cl)c(S(=O)(=O)N3CCOCC3)c2)C1=O (stereo not drawn)	-0.8	-4.2	-0.1	.	1%	.	.	-8
Cc1nc(NC(=O)c2ccc([N+](=O)[O-])cc2Cl)sc1C(=O)N(C)C	1.6	.	1.7	40	?	-1	-2.5	-4
Cc1ccc(S(=O)(=O)N2CCCC2C(=O)NCc2ccccc2F)cc1 (stereo not drawn)	0.8	-4.1	0.5	-2	.	-2	6.5	-4
CCCn1c(NC(=O)C2CCN(S(=O)(=O)c3cccs3)CC2)nc2ccccc21	6.9	.	-0.5	-5	2%	47	1.9	11
O=C1C=CN(C(=O)Oc2ccccc2)CC1	2.3	0.4	0.6	15	.	2	-3.4	-5
CCNc1nc(NC(C)C)nc(OCCNS(=O)(=O)c2cc(C)ccc2C)n1	7.2	.	0.0	-13	9%	3	-1.0	1
CCc1ccc(CNC(=O)C2CCN(S(=O)(=O)N3CCCC3)CC2)cc1	0.2	-4.9	-0.1	-12	-1%	3	0.8	-6
CC(NC(=O)OCc1ccccc1)C(=O)Oc1cc2oc(=O)cc(-c3ccccc3)c2cc1Cl (stereo not drawn)	1.3	-6.1	-1.5	82*	.	1	-5.9	-16
C=C1C2(C(=O)NCc3ccco3)CCC(C2)C1(C)C (stereo not drawn)	1.3	.	-0.9	-2	13%	-25	2.8	2
COc1cc(-c2onc3ccc(Br)cc23)cc(OC)c1OC	3.4	?	-0.3	29	9%	-54	10.0	11
CCC(C(=O)OCC(=O)NC(=O)c1ccccc1OC)c1ccccc1 (stereo not drawn)	4.9	-12	0.0	0	17%	-4	-3.1	-1
CCCn1c(C)cc(=O)c2cc(NC(=O)c3cnccn3)ccc21	-1.2	.	0.3	2	7%	-8	0.7	0
O=C(CCN1C(=O)/C(=C/c2ccccc2)SC1=S)N[C@@H](CO)Cc1ccccc1	-2.3	-0.4	-1.7	-4	2%	-11	0.1	-58

Next part.
SMILES	LANA-H2A inh	AF4-AF9 inh	A1 inh	Calb FLC	Vif A3G	T cruzi repl	RanGTP-Impb inh	Beta cell apopt
COC(=O)[C@@H](NC(=O)N1CCC(Cc2ccccc2)CC1)C(C)C	-1.9	0.0	-0.7	-12	-3%	0	1.8	-8
Cc1ccc(S(=O)(=O)N2CCN(C(=O)CCC(=O)N3CCc4ccccc43)CC2)cc1	-1.3	.	0.5	2	9%	5	3.8	-2
O=C(CSCc1c(F)cccc1F)Nc1ccccc1	2.5	-0.9	-0.6	19	.	-17	-0.1	-1
CN(C)/C=C/C1=CC(=O)CC(C)(C)C1	5.3	2.1	0.2	6	11%	13	-1.1	0
COc1ccc(-c2c(C)oc3c(CN4CCOCC4)c(O)ccc3c2=O)cc1OC	-2.9	1.0	1.5	-1	-5%	-22	0.1	-3
Cc1cccc(N2CCN(C(=O)C3CCCN(S(=O)(=O)c4c(C)noc4C)C3)CC2)c1C (stereo not drawn)	-6.8	2.8	-0.3	-6	.	21	9.5	-1
CCOC(=O)c1c(NC(=O)CSc2nnc(Cc3csc(N)n3)n2C)sc(C)c1C	-1.3	.	0.5	22	8%	37	-0.2	2
CC1=C(C(=O)OCCCCCl)C(c2cc3c(cc2Br)OCO3)NC(=O)N1 (stereo not drawn)	0.4	2.8	0.6	-7	.	19	-4.0	1
COc1ccc(OC)c(S(=O)(=O)Nc2cc3c(cc2N2CCCC2)n(C)c(=O)c(=O)n3C)c1	-1.5	8.7	-0.4	2	.	-13	-1.8	-14
CCOc1ccc(C(C(=O)NC2CCCC2)N(CCCO)C(=O)c2ccc(-c3ccccc3)[nH]2)cc1 (stereo not drawn)	-2.3	1.3	-0.9	16	9%	-1	1.4	4
O=C(COC(=O)c1cc2ccccc2o1)c1ccccc1	-1.1	.	0.5	17	-5%	-1	-0.9	-2
CC1CCC2(CC1)NC(=O)N(CC(=O)NC(=O)Nc1ccc3c(c1)OCCO3)C2=O (stereo not drawn)	-1.0	-2.2	-0.6	1	.	4	6.2	-2
